# H5N1 antiviral: MDCK cell protection from H5N1 avian flu; cytopathic effect, luminescence, 72 h; active compounds read high; no value below 0 was filed and about half of the inactive calls have no number; reference of the scale not given here; inhibition, % at 50 µM; 96,000 compounds, 0.07% hits; in the data active = inhibition above about 25%
# * marks the source's active call; other numbers are inactive results; i = inactive. A portion of the library. The share of hits here may be higher or lower than overall.
SMILES,H5N1 antiviral
COc1cc(CNCc2cccs2)ccc1OCC(N)=O,i
CCOC(=O)C1=C(C)N=C2SC(C)C(=O)N2C1/C=C/c1ccccc1OC (stereo unspecified),i
Nc1cc(Cl)ccc1N1CCOCC1,i
CCOc1cc(/C=N\NC(=O)c2ccc(NC(=O)C(C)(C)C)cc2)ccc1OC(=O)c1ccc(C)cc1,0.3
Cc1cc(C)n(S(=O)(=O)c2cc(C)c(C)cc2C)n1,i
Cc1ccc(S(=O)(=O)N2CCCC2C(=O)NC2CCCCC2)cc1 (stereo unspecified),i
CCOC(=O)N1CCN(C(=O)c2cc3cc(Br)ccc3oc2=O)CC1,i
Cc1ccccc1CNc1nc(N)n(-c2ccccc2)n1,i
COC(=O)c1c(NC(=O)CCc2ccc(C)o2)sc(C)c1C,1.5
CCOCC(=O)N1CCc2ccccc21,1.4
CCCN(CCC)CCNC(=O)CS(=O)Cc1nc(-c2ccc(C)cc2)oc1C (stereo unspecified),1.1
CCCNC(=O)N1CCC(C(=O)c2cccc(F)c2)CC1,i
O=C(/C=C/c1ccc(Cl)cc1Cl)n1cccn1,i
CN(C)Cc1ccc(O)c(CCc2ccccc2)n1,0.1
CCOC(=O)CC1=C(C#N)C(c2cccnc2)C(C(=O)OCC)=C(N)O1 (stereo unspecified),i
CCc1ccc(CN(C(=O)c2cc3ccccc3oc2=O)C2CCS(=O)(=O)C2)cc1 (stereo unspecified),1.5
COC(=O)c1ccc(CSc2nc3cc(Cl)ccc3o2)cc1,i
CCOC(=O)N1CCN(C(=O)Nc2ccccc2Cl)CC1,i
CCOC(=O)c1nc(C)n(-c2cc(Cl)cc(Cl)c2)n1,i
O=C(CSc1nnc(CNc2ccc(F)cc2)n1Cc1ccco1)NC1CC1,0.1
NS(=O)(=O)c1ccc(Nc2nc(-c3ccc(O)cc3O)cs2)cc1,1.4
COc1cc(NC(=O)c2cc3c(C)nc4ccccc4c3o2)cc(OC)c1OC,i
CCOc1ccc(N2C(=O)c3cccnc3C2Nc2ccc(F)cc2)cc1 (stereo unspecified),i
CCc1c(C(=O)Nc2cc(C)ccc2OC)[nH]c(C)c1C(C)=O,i
C/C(=N\N=C1\NC(=O)CC(C(=O)O)S1)c1cccs1 (stereo unspecified),0.7

# Brought forward from above: four compounds, then new ones.
SMILES,H5N1 antiviral
COc1cc(NC(=O)c2cc3c(C)nc4ccccc4c3o2)cc(OC)c1OC,i
CCOc1ccc(N2C(=O)c3cccnc3C2Nc2ccc(F)cc2)cc1 (stereo unspecified),i
CCc1c(C(=O)Nc2cc(C)ccc2OC)[nH]c(C)c1C(C)=O,i
C/C(=N\N=C1\NC(=O)CC(C(=O)O)S1)c1cccs1 (stereo unspecified),0.7
CCN(CC)CCCNC1CCS(=O)(=O)C1 (stereo unspecified),i
CC(C)c1ccc(C(=O)N(c2ccccn2)C(C)c2ccco2)cc1 (stereo unspecified),4.0
CCn1c(CNc2ccc(F)cc2)nnc1SCC(=O)OC1CCCCC1,0.3
CCCCOc1cccc(C(=O)N(Cc2cccs2)C2CCS(=O)(=O)C2)c1 (stereo unspecified),0.5
c1ccc(OCc2nn3c(Cn4cnc5ccccc54)nnc3s2)cc1,2.1
COc1ccc(C(c2nnnn2Cc2ccccc2)N2CCN(C(=O)c3ccco3)CC2)cc1 (stereo unspecified),3.8
CCC1(C)Cc2c(sc3nnn(CC(=O)Nc4ccc(C)cc4)c(=O)c23)CO1 (stereo unspecified),0.4
CCC1CCCCN1C(=O)Cn1c(=O)oc2ccccc21 (stereo unspecified),i
COc1ccc(/C=N/NC(=S)NC2CCS(=O)(=O)C2)cc1OC (stereo unspecified),i
CCOC(=O)N1CCC(NC(=O)Cn2ncc3c4ccccc4n(C)c3c2=O)CC1,i
COc1ccc(N2C(=O)CCC2(C#N)c2ccc(OC)cc2)cc1 (stereo unspecified),0.6
O=C(COC(=O)c1ccco1)Nc1ccc2c(c1)OCO2,i
CC(=O)Nc1ccc(Oc2ncccn2)c(Cl)c1,i
Cc1c(C)n(C(=O)CSc2ncn[nH]2)c2ccccc12,i
COc1cc(NC(=O)CCC(=O)O)nc(OC)n1,i
CCN(C(=O)COc1cc(=O)n(CC)c2ccccc12)c1cccc(Cl)c1,0.5
COC(=O)c1cccc(NC(=O)COC(=O)CSc2nc(C)cc(C)n2)c1,0.8
CCOC(=O)Cn1c(S(=O)(=O)Cc2ccc(F)cc2)nc(-c2ccccc2)c1-c1ccccc1,0.1
Cc1cccc(NCN2C(=O)c3ccncc3C2=O)n1,0.2
CS(=O)(=O)N1CCC(C(=O)Nc2ccc(F)cc2F)CC1,i
CCOC(=O)c1c(C)[nH]c(C)c1C(=O)CSc1nnc(-c2ccco2)n1Cc1ccccc1,i
Nc1n[nH]c2c1C1(CCCCC1)Cc1ccccc1-2,i
COc1ccc(CNC(=O)C2CCCN2S(=O)(=O)c2ccc(S(=O)(=O)N(C)C)cc2)cc1 (stereo unspecified),0.5
COc1cccc(-c2nc3ccccc3s2)c1,i
Cc1ccc(S(=O)(=O)NC2CCC(C(=O)O)CC2)cc1 (stereo unspecified),0.6

# Rewritten as labelled records: entries from further up
smiles: COc1ccc(N2C(=O)CCC2(C#N)c2ccc(OC)cc2)cc1 (stereo unspecified)
  H5N1 antiviral = 0.6
smiles: O=C(COC(=O)c1ccco1)Nc1ccc2c(c1)OCO2
  H5N1 antiviral = i
smiles: CC(=O)Nc1ccc(Oc2ncccn2)c(Cl)c1
  H5N1 antiviral = i
smiles: Cc1c(C)n(C(=O)CSc2ncn[nH]2)c2ccccc12
  H5N1 antiviral = i

# Continuation.
SMILES,H5N1 antiviral
Cc1cc(C(=O)NCCC(c2ccccc2)c2ccccc2)c(C)o1,1.1
CCOC(=O)CN(C(=O)CSc1nnc(C)n1-c1ccccc1)c1ccccc1,0.7
O=C(NC(=S)NCCN1CCOCC1)c1ccccc1Cl,i
CCOC(=O)c1c(Nc2ccccc2)sc(/C=C2\C=Nc3ccccc32)c1O,i
COC(=O)C1=C(C)N(c2ccc(C(=O)OC)cc2)C(=O)C1,0.2
CCn1c(SCC(=O)Nc2ccccc2N2CCCCC2)nc2c1c(=O)n(C)c(=O)n2C,1.3
COC(=O)c1c(C)[nH]c(O)c1C=Nc1ccc(C(C)C)cc1,i
c1ccc2c(c1)CCN(CCCNc1nc3ccccc3n3cnnc13)C2,0.6
Cc1ccc(C(=O)OCC(=O)Nc2ccc3c(c2)OCO3)cc1S(=O)(=O)N1CCOCC1,0.2
O=C(Cn1nnc(-c2ccccc2NC(=O)c2cccs2)n1)Nc1ccccc1,0.7
CC1CC(=O)c2cnc(NCc3ccco3)nc2C1 (stereo unspecified),5.8
CC(=O)n1nc(-c2cccc(C)c2)nc1SCC(=O)Nc1ccccc1,0.2
COc1ccccc1NC(=O)CCC(=O)O,i
COC(=O)CC(NS(=O)(=O)c1cccs1)c1cccc2ccccc12 (stereo unspecified),0.6
CS(=O)(=O)N1CCC(C(=O)N2CCc3ccccc3C2)CC1,1.2
COc1ccc(-n2c(COc3cccc(C)c3)nnc2SCC(=O)NCc2ccco2)cc1,i
O=C(Cn1[nH]c(=O)c2ccccc2c1=O)Nc1ccc(-c2nnc3n2CCCCC3)cc1,i
Cc1ccc(N(CC(=O)N2CCN(c3ccc(F)cc3)CC2)S(=O)(=O)c2c(C)nn(C)c2C)cc1,0.4
Cc1ccc2oc(=O)n(CCCOc3ccccc3)c2c1,i
CCOC(=O)Cn1cc(C(=O)OC)c2ccccc21,i
CC(C)c1cc(NCC2CCCO2)n2c(nc3ccccc32)c1C#N (stereo unspecified),0.7
O=C(CN1CCN(C(=O)c2cccs2)CC1)NC1CCCCC1,0.0
O=C(O)c1ccc(NS(=O)(=O)c2ccc3nnn(O)c3c2)cc1,2.0
CCCCC(=O)Nc1cccc2c1C(=O)N(c1ccccc1)C2=O,0.2
CN(CC(=O)NCC1CCCO1)S(=O)(=O)c1cc(Cl)ccc1Cl (stereo unspecified),0.5

# The listing continues:
SMILES,H5N1 antiviral
Cn1nc(-c2ccccc2)c(-c2nc(-c3ccc(Cl)cc3)no2)c1Cl,i
Cc1nc2ccccc2c(=O)n1NC(=O)Nc1ccccc1,i
O=C(NCc1ccco1)c1ccc2c(=O)n(CC3CCCO3)c(=S)[nH]c2c1 (stereo unspecified),i
CCOc1cc(C)c(Cl)cc1S(=O)(=O)N(CC)CC,0.2
CC(N=c1ccccn1C(=O)Nc1ccc(Cl)cc1)c1ccco1 (stereo unspecified),i
Cc1ccccc1CSc1nnc(C)n1N,1.3
N#CCCN1CCN(S(=O)(=O)c2ccc(S(=O)(=O)N3CCOCC3)cc2)CC1,2.9
CCN1CCN(Cc2ccc(NC(=O)Nc3ccc(SC)cc3)cc2)CC1,i
CCn1ncc(/C=N/N=C2\CCC3C4CCc5cc(O)ccc5C4CCC23C)c1C (stereo unspecified),i
CCSc1ncc(C#N)c(N)n1,8.8
CS(=O)(=O)N1CCCC(C(=O)N2CCOCC2)C1 (stereo unspecified),i
Cc1ccc(CC2CC(=O)N(CCc3ccc4c(c3)OCO4)C2=O)cc1 (stereo unspecified),2.1
NC(=O)c1ccccc1NS(=O)(=O)c1cccs1,0.3
CCn1c(=O)cc(SCC(=O)N2CCC3(CC2)OCCO3)c2ccccc21,0.8
Cc1cc(Br)ccc1OCC(=O)NNC(=O)c1ccc(NC(=O)C2CC2)cc1,0.5
Cc1cn2c(nc1=O)OC1C(O)C(COC(=O)c3ccccc3)OC12 (stereo unspecified),0.6
CSc1nc2nc3c(cn2n1)C(=O)CC(c1ccccc1)C3 (stereo unspecified),1.9
O=C(Nc1cccc(C(=O)N2CCCC2)c1)c1ccccc1Cl,2.3
C=CCOc1ccc(Cl)cc1C(=O)O,3.0
CCCCNC(=O)C1CC(c2c(Cl)cccc2Cl)=NO1 (stereo unspecified),i
Cc1ccc(NC(=O)Cn2nc(C(F)(F)F)c3c2CCC3)cc1,i
CSc1nc(C)c2c(n1)N(c1cccc(C)c1)CC2,0.4
C#CCSc1nccc(-c2nn(-c3ccc(C)cc3)ccc2=O)n1,1.9
C=CCn1c(CC(=O)OC)csc1=Nc1ccc(C(C)=O)cc1,i
COc1ccc(N(CC(=O)Nc2cccc(SC)c2)S(C)(=O)=O)cc1Cl,1.6

# Following part
SMILES,H5N1 antiviral
COCCn1nnnc1C(c1ccc(O)c(OC)c1)N1CCc2ccccc2C1 (stereo unspecified),0.3
Cn1c2ccccc2c2c(C(=O)N3CCC4(CC3)OCCO4)cn(C3CCCCC3)c(=O)c21,0.6
COc1ccccc1OCC(=O)NCCNC(=O)COc1ccccc1OC,i
Cc1cc(=O)oc(C)c1C(=O)NCCC(C)C,0.1
CCC(C)(C)n1nnnc1C(c1ccncc1)N1CCC(Cc2ccccc2)CC1 (stereo unspecified),1.2
CO/N=C/C(=N\Nc1ccc(C)cc1)C(=O)c1ccc(OC)cc1,i
O=S(=O)(NCC1CCN(S(=O)(=O)c2ccccc2)CC1)c1ccccc1,0.8
CCCc1[nH]nc2c1C(c1ccc(Br)s1)C(C#N)=C(N)O2 (stereo unspecified),i
Cc1ccc2cccc(NC(=S)NC(=O)c3ccccc3)c2n1,1.8
Cc1ccc(C)c(NC(=O)C2Cc3ccccc3CN2C(=O)OCc2ccccc2)c1 (stereo unspecified),i
COC(=O)C(C)Oc1ccc2c3c(c(=O)oc2c1)CCCCC3 (stereo unspecified),0.5
CCN(CC)S(=O)(=O)c1cccc(-c2nnc(SCc3nc4ccccc4s3)o2)c1,0.8
Cc1ccc2c(c1)nnn2C1CCN(S(C)(=O)=O)CC1,i
COCCCN1Cc2cccc(C(=O)O)c2C1=O,0.2
CCN(CC)CCNc1nc(-c2ccccc2)nnc1C(F)(F)F,i
CCCCNC(=O)c1ccc2c(c1)N(CC)C(=O)CS2,i
CC(CC1C(C#N)=C(N)OC2=C1C(=O)CCC2)c1ccccc1 (stereo unspecified),1.2
Cc1cc(C(=O)NN=C2C3CC4CC(C3)CC2C4)c2ccccc2n1,i
CCOc1ccc2nc(NC(=O)Nc3ccccc3)sc2c1,i
CCOc1ccc(C(=O)N2CCCC2C(=O)O)cc1 (stereo unspecified),i
CCOC(=O)Cc1csc(NC(=O)c2sc3nc4ccc(CC)cc4cc3c2N)n1,i
CC1CCN(S(=O)(=O)c2ccc(NC(=O)CSc3ncccc3C(=O)O)cc2)CC1,0.2
CC(C)(C)OC(=O)COc1cc(OCC(=O)OC(C)(C)C)c2c(=O)cc(-c3ccccc3)oc2c1,i
CC(C)NC(=O)c1ccccc1S(=O)c1ccccc1C#N (stereo unspecified),0.6
CC1CCCC/C1=N/Nc1ccc([N+](=O)[O-])cc1[N+](=O)[O-] (stereo unspecified),1.2

# Sorted by formula weight (rising): some entries from above.
SMILES,H5N1 antiviral
CCOc1ccc(C(=O)N2CCCC2C(=O)O)cc1 (stereo unspecified),i
CC(CC1C(C#N)=C(N)OC2=C1C(=O)CCC2)c1ccccc1 (stereo unspecified),1.2
COCCn1nnnc1C(c1ccc(O)c(OC)c1)N1CCc2ccccc2C1 (stereo unspecified),0.3
CC(C)(C)OC(=O)COc1cc(OCC(=O)OC(C)(C)C)c2c(=O)cc(-c3ccccc3)oc2c1,i

# The list goes on.
SMILES,H5N1 antiviral
CCS(=O)(=O)N1CCC(C(=O)NCCCOC)CC1,i
CCCCOc1ccc(CSc2ncn[nH]2)cc1,0.5
O=C(NC1CCCCC1)N(Cc1cc2cc3c(cc2[nH]c1=O)OCCO3)C1CCCCC1,i
Cn1nc(C(F)(F)F)c(/C=N/OCc2c(Cl)cccc2Cl)c1Cl,6.0
CCCc1[nH]n(-c2nc3ccccc3s2)c(=O)c1C=NCC(C)C,0.2
CCOC(=O)c1ccccc1NC(=O)CSc1nnc(Cc2cccn2C)n1-c1ccc(C)cc1,i
O=c1c2ccccc2nc2n1CCCCC2,i
COc1ccc(CCNc2nc(N3CCOCC3)nc(N3CCOCC3)n2)cc1OC,0.9
CCOc1ccc2[nH]c(=O)c(CN(CCN3CCOCC3)Cc3nnnn3C(C)(C)CC)cc2c1,1.5
